Compound activity deposited in PubChem by National Center for Advancing Translational Sciences (NCATS).
VDR inhibitor – Inhibitors of the vitamin D receptor (VDR): qHTS; Vitamin D3 receptor (Homo sapiens), P11473; VDR-SRC2-3 peptide fluorescence polarization, 2 h; hit rate 0.93% among 400,000; AID 504847, 2011; Potency, µM, without a hit: max response, negative = inhibition, most hits filed as inhibitors; active = well fitted inhibition curve with a large enough effect; inconclusive = small, poorly fitted or top-dose-only effect, or another doubt; inactive = no such curve, though single readings can be large or run the other way; also: series mostly up to about 120 µM
Target sequence (P11473 whole entry, looked up): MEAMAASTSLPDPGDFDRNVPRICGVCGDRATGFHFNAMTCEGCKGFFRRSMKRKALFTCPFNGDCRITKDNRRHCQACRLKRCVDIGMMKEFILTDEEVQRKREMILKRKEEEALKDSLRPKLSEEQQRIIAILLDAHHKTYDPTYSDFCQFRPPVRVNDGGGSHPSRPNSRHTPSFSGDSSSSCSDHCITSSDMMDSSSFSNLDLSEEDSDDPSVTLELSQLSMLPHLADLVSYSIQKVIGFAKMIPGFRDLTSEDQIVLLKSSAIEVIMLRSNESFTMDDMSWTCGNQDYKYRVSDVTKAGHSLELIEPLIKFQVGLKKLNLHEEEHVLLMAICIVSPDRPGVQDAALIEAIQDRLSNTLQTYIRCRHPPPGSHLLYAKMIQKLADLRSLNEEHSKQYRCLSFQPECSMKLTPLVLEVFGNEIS
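Measured by FP: displacement of SRC2-3 coactivator peptide from VDR by library compounds, following a two-hour ambient incubation.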
An asterisk follows results filed as active; u = inconclusive; & = joins results of further samples; [ ] = dose if it differs, or a comment. % is scaled to controls: 0 for no effect and ±100 for the full control effect; potency is read from the fitted curve at half-maximal effect. An excerpt (hit frequency here may not be typical).

mol	VDR inhibitor
CN1CCN(C(=O)C2(NC(=O)NCc3ccccc3)CCCCC2)CC1	2.1%
O=C(COC(=O)CNC(=O)c1ccccc1F)NC12CC3CC(CC(C3)C1)C2	-3.5%
CCCCCCN1C(=O)C(O)=C(C(C)=O)C1c1ccccc1[N+](=O)[O-] (centres undefined)	2.5%
Cc1ccc(-n2ncc3c(=O)n(CC(=O)OCc4ccccc4)cnc32)cc1	-19.9%
Brc1ccc(CNCc2cccs2)cc1	-5.4%
CCOC1(c2ccccc2)OC(=O)c2ccccc21 (centres undefined)	-9.5%
COc1ccccc1CC(=O)Nc1ccccc1C(=O)O	0.9%
NC(=S)N/N=C/c1coc2ccc(F)cc2c1=O	-5.1%
O=C(O)c1ccc(N/N=C/C=C/c2ccc([N+](=O)[O-])o2)cc1	u
CS(=O)(=O)c1cccc(-c2nnc(NC(=O)CCS(=O)(=O)c3ccccc3)o2)c1	0.7%
O=C(CN(C(=O)CCC(=O)Nc1nccs1)c1cccc(F)c1)NCC1CCCO1 (centres undefined)	10.2%
COc1ccc(C2C(C(=O)C(C)(C)C)=C(O)C(=O)N2Cc2ccccc2)cc1 (centres undefined)	-9.3%
Cc1ccccc1S(=O)(=O)Cc1ccc(C(=O)NCCCN2CCCC(C)C2)o1 (centres undefined)	-13.7%
CN(Cc1ccccc1)C1CC(=O)N(c2ccc(C(=O)O)cc2)C1=O (centres undefined)	22.0%
CCCCOc1ccccc1C(=O)NCCCCCC(=O)O	-3.6%
COc1ccc(C2NC(=O)N(C)C(C)=C2[N+](=O)[O-])cc1 (centres undefined)	-15.3%
Nc1sc2c([n+]1CCCS(=O)(=O)[O-])CCCC2	1.9%
O=C(OCC(=O)N1CCCC1=O)C1CCN(S(=O)(=O)c2c(Cl)cccc2Cl)CC1	-10.0%
Cc1ccc(CNS(=O)(=O)NCc2ccccc2F)cc1	-11.0%
C#CCOCCOCCOCCNc1nc(N2CCN(C(=O)[C@H]([C@@H](C)O)n3cc(CCCCN)nn3)CC2)nc(N2CCN(C(=O)[C@H](CCCCN)n3cc(CCC(=O)O)nn3)CC2)n1	-26.5%
COc1ccc(NC(=O)c2c(NCc3cccc(OC)c3)sc3c2CCC3)cc1	-15.7%
CC1(c2nnc(Cc3ccccc3)o2)CC(c2cccc([N+](=O)[O-])c2)=NO1 (centres undefined)	11.9%
Cc1cc(NC(=O)CN2CCCCCCC2)no1	5.8%
Cc1ccccc1NC(=O)CSc1cn(CC(=O)N(C(C)C)C(C)C)c2ccccc12	5.9%
Cc1ccc(CNC(=O)COC(=O)c2nc(-c3ccccc3)oc2C)cc1	-2.3%
CCOc1ccccc1C(=O)Nc1ccc(S(=O)(=O)Nc2cc(OC)nc(OC)n2)cc1	1.0%
COc1cc(C(=O)Nc2cccc(C)c2C)ccc1OCC(=O)N1CCOCC1	9.0%
COc1ccc(C(=O)Nc2cnc3sc(C)nn3c2=O)cc1	2.3%
Cc1ccc(N2CCN(c3cc(C)nc4c(-c5ccc(Cl)cc5)c(C)nn34)CC2C)cc1 (centres undefined)	-3.3%
O=C(Nc1ccc(Cl)cc1)OCc1ccccn1	5.0%
Cc1cc(C(F)(F)F)nn1CC(=O)Nc1ccc2c(c1)OCO2	2.9%
CC(NC(=O)Cn1c(=O)oc2cc(S(=O)(=O)N3CCCC3)ccc21)c1ccccc1 (centres undefined)	20.6%
COCC(=O)Nc1ccc(N2CCN(c3ccccc3)CC2)c(F)c1	9.0%
CC(=O)N1c2ccc(S(=O)(=O)NCCC(=O)Nc3ccc(C)cn3)cc2CC1C (centres undefined)	-0.4%
CC(Sc1nnc(Cc2ccccc2)o1)C(=O)NC1(C#N)CCCCC1 (centres undefined)	-21.9%
Cc1ccccc1Cn1c(C)cc(C)c(C#N)c1=O	-23.9%
O=[N+]([O-])c1ccc(Cl)c(S(=O)(=O)NCC2CCCO2)c1 (centres undefined)	-12.3%
O=C(/C=C/c1ccco1)Nc1ccccc1N1CCOCC1	-11.3%
Cc1ccccc1Nc1c(-c2ccco2)nc2c(C)cccn12	-7.9%
CC(C)NC(=O)C1CCN(S(=O)(=O)c2ccc(N3CCCC3=O)cc2)CC1	-15.4%
CNC(=S)N(Cc1cc2cc(C)ccc2n2nnnc12)CC(C)(C)CN(C)C	46.5%[activator]
S=c1[nH]nc(-c2ccncc2)n1Cc1ccccc1	8.6%
Cc1cc(C)nc(SC/C=C/c2ccccc2)n1	-5.7%
NC1=NC(=Nc2ccccc2)c2ccccc21	u
COc1ccc(CCNCC(=O)Nc2ccc(C(=O)N3CCCCC3)cc2)cc1	-1.5%
Cc1cc(N2C(=O)C3C4C=CC(C4)C3C2=O)ccc1NC(=O)c1cccs1 (centres undefined)	-21.6%
COc1nc(NCCC2=CCCCC2)nc(OC)n1	15.6%
O=C(O)C1CC=CCC1C(=O)Nc1ccc2c(c1)OCCO2 (centres undefined)	-2.3%
O=C(O)C1C2C=CC(C2)C1C(=O)NCc1ccc2c(c1)OCO2 (centres undefined)	11.6%
O=C(Cn1cc(SCc2c(F)cccc2Cl)c2ccccc21)N1CCCCCC1	7.1%
CC(CN1CCCCC1)C(=O)NNC(=O)C12CC3CC(CC(C3)C1)C2 (centres undefined)	17.2%
S=C(Nc1ccc2nsnc2c1)N1CCCCCC1	-0.6%
Fc1ccc(Cn2nnnc2C(c2cccs2)N2CCCCCC2)cc1 (centres undefined)	-3.0%
O=C(NCCOc1ccccc1)C1CCC(=O)N(C2CCCCCC2)C1 (centres undefined)	-0.4%
CSc1ccccc1C(=O)Nc1nc2ccccc2c(=O)[nH]1	10.5%
Cc1c(Cc2ccccc2)c(NCCCO)n2c(nc3ccccc32)c1C#N	-13.6%
O=C(C[n+]1cc(-c2ccccc2)n2c1CCCCC2)c1ccc(Br)cc1	-14.8%
COC(=O)c1ccc(CN(Cc2ccc(OC)c(OC)c2)S(=O)(=O)c2ccc(F)c(C(=O)Nc3cc(C)ccc3C)c2)cc1	-2.0%
COC(=O)c1c(-c2cccs2)csc1NC(=O)c1cc(OC)cc(OC)c1	u
O=C(NC1CCS(=O)(=O)C1)c1ccc(-c2ccc(Br)cc2)o1 (centres undefined)	2.9%

Additional results follow.
mol	VDR inhibitor
Cn1ccnc1SCC(=O)Nc1sccc1C#N	7.9%
CCCn1c(SCC(=O)Nc2nccs2)nnc1-c1cccnc1	-0.2%
O=C(Cn1cnc2ccccc2c1=O)N1CCOCC1	2.0%
COc1cccc(Nc2nc(N)nc(CCl)n2)c1	3.4%
CC(=O)Nc1cccc(Oc2ccc([N+](=O)[O-])cc2Cl)c1	7.3%
CC(C)CN=c1cc(-c2ccccc2)oc2ccc(Cl)cc12	12.5%
CC1CCN(S(=O)(=O)c2ccc(Oc3ccc([N+](=O)[O-])cc3)cc2)CC1	9.5%
Cc1nc2sc(-c3ccccc3)nn2c(=O)c1Br	7.6%
COC(=O)c1c(/N=C/N(C)C)sc2c1CCN(c1ncc(C(F)(F)F)cc1Cl)C2	-4.5%
COc1ccc(CCNC(=O)/C=C/c2ccc(OC)c(S(=O)(=O)N3CCOCC3)c2)cc1	-3.6%
Cc1sc2nc(CN3CCCCC3)nc(Nc3ccc4c(c3)OCCO4)c2c1C	-9.0%
CCOC(=O)C1Oc2ccccc2C(c2ccc(OC)cc2)=C1C(=O)OC (centres undefined)	8.0%&1.4%
CC1(C)CC(CCNC(=O)c2ccco2)CC(C)(C)N1	-14.2%
CC1(C)CC(=O)C=C(N2CCCC2)C1	-2.7%
COC(=O)c1cc(C(=O)NCCC(C)C)cc([N+](=O)[O-])c1	6.8%
CCn1ncc(/C=C/C(=O)c2ccccc2)c1C	-15.9%
O=C(N/N=C/c1cc(Cl)ccc1O)c1ccccc1Br	-6.8%
O=C(NCCc1ccc(Cl)cc1)C1CCC(=O)N(C2CCCCCC2)C1 (centres undefined)	-9.3%
Cc1nc2scc(C)n2c(=O)c1S(=O)(=O)NCCc1ccc(Cl)cc1	13.3%
Cc1ccc(S(=O)(=O)N2CCN(C(=O)c3cc(S(=O)(=O)N4CCOCC4)ccc3F)CC2)cc1	6.1%
CCCOc1ccc(C(C)(O)CN2CCOCC2)cc1 (centres undefined)	21.4%
CCOC(=O)c1c(C)[nH]c(CCC(=O)NCc2ccccc2C)c1C	7.4%
COc1ccc2nc3c(nc2c1)CCCC3	0.5%
COc1ccc(C(=O)NCCN2CCCC2)cc1OC	4.7%
Cc1ccc2cc(CN(CC(C)C)S(=O)(=O)c3ccccc3)c(=O)[nH]c2c1	7.4%
Nc1nc(SCC(=O)N2CCCC2)[nH]c(=O)c1-c1ccccc1	0.2%
CCOC(=O)C(CCCCCCP(=O)(c1ccccc1)c1ccccc1)NC(C)=O (centres undefined)	10.5%
Cc1ccc(OCC(=O)NCc2ccccc2)c([N+](=O)[O-])n1	-15.3%
NC(=O)c1ccc(Br)c(S(=O)(=O)N2CCCCC2)c1	1.7%
COc1ccc(CCNC(=O)CCCCn2c(=O)c3ccccc3n(Cc3cc(C)ccc3C)c2=O)cc1OC	13.5%
CCN(C(=O)Cc1c(C(=O)O)n(CC)c2ccccc12)c1cccc(C(F)(F)F)c1	u
CCN1C(=O)[C@H]2[C@@H](c3ccc(-c4ccc5c(c4)OCO5)cc3)N3CCC[C@@]3(C(=O)OC)[C@H]2C1=O	-5.5%
CC(C)Nc1nc(Oc2cccc(Cl)c2Cl)cc(C(F)(F)F)n1	-11.2%
Cc1ccc(-n2nc3c(c2NC(=O)c2ccc(S(=O)(=O)N4CCOCC4)cc2)CSC3)c(C)c1	1.5%
COc1ccc(-c2ccnc3nc(/N=C/N(C)C)nn23)cc1	1.2%
COc1ccccc1NC(=O)/C=C/c1ccc2c(c1)OCO2	1.2%
Cc1ccc(NC(=O)C2CCCN(c3ncnc4c3nc3n4CCCCC3)C2)c(Br)c1 (centres undefined)	16.4%
O=C(NCc1ccc2c(c1)OCO2)C1CCCN1S(=O)(=O)c1ccc(Cl)cc1 (centres undefined)	-13.6%
COC(=O)c1ccc(OCCCCN2CC(C)OC(C)C2)cc1 (centres undefined)	6.0%
CCOC(=O)CNC(=O)CSc1nc2c(C)cccc2cc1CC	20.2%
CC1CCN(C(=O)CN2C(=O)NC3(CCC(C)CC3)C2=O)CC1 (centres undefined)	-8.9%
CCOC(=O)N1CCN(c2c(N3CCc4ccccc4C3)c(=O)c2=O)CC1	-15.7%
Cc1cc(NC(=O)C(C)SCC(=O)Nc2nc3c(F)cc(F)cc3s2)no1 (centres undefined)	-20.6%
O=C(Cn1nc(C(=O)O)c2ccccc2c1=O)Nc1ccc(F)cc1F	0.2%
COc1cccc(C(=O)CSc2nnc(COc3cccc4cccnc34)o2)c1	8.8%
CCOCCCNC(=O)c1ccc(-n2c(-c3ccccc3)cc3c2CCCC3)cc1	-8.0%
Cc1cc(C(F)(F)F)n2nc(-c3cnn(C)c3C(F)(F)F)cc2n1	1.1%
COc1cccc(-n2nnc3c(=O)n(Cc4ccc(Cl)cc4)cnc32)c1	-1.0%
Nc1ccc2oc(-c3cccs3)nc2c1	6.7%
CC(NC(=O)CN1C(=O)COc2ccccc21)c1ccccc1 (centres undefined)	1.6%
CCc1cccc(C)c1NC(=O)CN1C(=O)NC(CCc2ccccc2)C1=O (centres undefined)	6.4%
Cc1ccc(Nc2nc(/N=C/NO)n[nH]2)cc1C	7.3%
Cc1ccccc1CNC(=O)c1ccc2nc(C(C)C)oc2c1	8.1%
Cc1ccc(S(C)(=O)=NC(=O)NC(=O)c2c(F)cccc2Cl)cc1 (centres undefined)	-0.7%
COc1ccccc1/C=N/Nc1nncc2ccccc12	-0.7%
NC(=O)N/N=C/c1c(O)ccc2oc3c(c12)CCCC3	-8.6%
CCOC(=O)C1Nc2ccc(C(F)(F)F)cc2C2c3ccccc3CC12 (centres undefined)	50.1µM*
c1ccc(Cn2c(SCc3cn4cccnc4n3)nnc2-c2ccco2)cc1	8.9%
O=C(NCc1ccccc1)c1cccc(NC(=O)C2CCCC2)c1	-12.3%
Cc1ccc(NC(=O)c2ccc(N3CCCC3=O)cc2)cc1S(=O)(=O)N1CCCCC1	-2.9%

The list goes on:
mol	VDR inhibitor
NS(=O)(=O)c1ccc(CCNC(=O)CSc2nc3ccsc3c(=O)n2CC(=O)O)cc1	11.7%
O=C(NCCCN=C1NS(=O)(=O)c2ccccc21)c1ccco1	9.1%
COC(=O)C(CC(=O)c1cccc(OC)c1)c1ccc(F)cc1 (centres undefined)	-15.1%
CCOC(=O)C1(CCOc2ccccc2)CCN(Cc2ccc(CO)o2)CC1	-10.0%
COC(=O)c1cc(C)nc2c1c(=O)nc(SCc1ccccc1Cl)n2C1CC1	7.5%
C=CCN(c1nc(C)cc(OC)n1)S(=O)(=O)c1ccc(C)cc1	-7.4%
Cc1ccc(C(=O)n2nc(C#N)c(C#N)c2N)cc1	-16.2%
COc1ccc(C(=O)NCCc2nnc3ccc(SCC(=O)NCc4ccc(F)cc4)nn23)cc1	-4.1%

Three entries already listed, arranged by formula weight, rising:
mol	VDR inhibitor
O=C(NCCCN=C1NS(=O)(=O)c2ccccc21)c1ccco1	9.1%
COC(=O)c1cc(C)nc2c1c(=O)nc(SCc1ccccc1Cl)n2C1CC1	7.5%
NS(=O)(=O)c1ccc(CCNC(=O)CSc2nc3ccsc3c(=O)n2CC(=O)O)cc1	11.7%
